KCNQ2 pot = potentiators of rat KCNQ2 potassium channel; B-score at 10 µM; 310,000 compounds, 0.54% hits; CHO-K1 KCNQ2, FluxOR thallium flux fluorescence; active compounds read high; O88943;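 active means fluorescence ratio B-score at least 3 SD of library B-scores, with initial fluorescence B-score within 3 SD, cut at about 5.3 in these data; same plate scores as AID 2156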;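 further: B-score of peak minus minimum over baseline fluorescence ratio after K+ and Tl+ stimulus; positive B-score means potentiation of KCNQ2 with more thallium influx and brighter signal; only the inactives scoring about 0 or higher are listed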
Target sequence (O88943 whole entry, looked up): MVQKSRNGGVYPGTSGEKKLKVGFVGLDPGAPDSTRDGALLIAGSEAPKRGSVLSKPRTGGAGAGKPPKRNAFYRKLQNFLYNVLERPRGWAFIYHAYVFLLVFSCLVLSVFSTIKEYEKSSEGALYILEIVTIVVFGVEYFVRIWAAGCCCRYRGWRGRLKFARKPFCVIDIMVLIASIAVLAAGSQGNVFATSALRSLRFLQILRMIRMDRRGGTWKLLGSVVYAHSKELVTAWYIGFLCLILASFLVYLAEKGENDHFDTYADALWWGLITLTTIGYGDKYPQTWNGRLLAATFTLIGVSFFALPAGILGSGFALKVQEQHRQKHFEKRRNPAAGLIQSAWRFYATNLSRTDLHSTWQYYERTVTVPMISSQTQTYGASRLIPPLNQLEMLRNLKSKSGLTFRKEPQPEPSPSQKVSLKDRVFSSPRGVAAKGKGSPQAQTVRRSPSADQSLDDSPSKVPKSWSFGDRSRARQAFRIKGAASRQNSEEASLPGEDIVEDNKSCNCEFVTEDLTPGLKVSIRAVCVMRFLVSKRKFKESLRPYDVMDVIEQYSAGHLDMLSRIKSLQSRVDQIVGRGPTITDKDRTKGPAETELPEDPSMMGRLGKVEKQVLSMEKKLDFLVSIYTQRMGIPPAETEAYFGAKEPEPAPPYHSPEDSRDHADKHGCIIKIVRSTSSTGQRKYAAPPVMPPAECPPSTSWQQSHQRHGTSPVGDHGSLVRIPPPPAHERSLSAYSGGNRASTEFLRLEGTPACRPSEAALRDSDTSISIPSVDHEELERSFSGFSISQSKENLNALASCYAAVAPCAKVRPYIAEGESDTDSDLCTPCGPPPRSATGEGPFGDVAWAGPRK
KCNQ2 pot baseline = further read-out of KCNQ2 pot, marked with its call; B-score; compound at 10 µM; measured here: initial fluorescence intensity artifact check;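 brightness before thallium and not channel activity; 0 = typical well and far values either way flag optical interference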
* hit, by the source's call. Not all compounds are listed; count on the stated rates, not on these rows.

The first 4 compounds, to show the layout:
No.	Molecule	KCNQ2 pot baseline	KCNQ2 pot
1	C/C(CCC(=O)O)=N/Nc1ccc([N+](=O)[O-])cc1[N+](=O)[O-]	0.72	1.62
2	C=CCn1c(NC(=O)c2ccc(Br)o2)c(C(=O)OCC)sc1=S	-0.29	0.81
3	COc1ccc(/C=C/C(=O)OCC(=O)NCCC2=CCCCC2)cc1OC	0.75	0.57
4	CCc1ccccc1NC(=O)CN(C)Cc1nc(N)nc(Nc2ccccc2C)n1	-0.83	0.36

This part in full, repeating the preview:
No.	Molecule	KCNQ2 pot baseline	KCNQ2 pot
1	C/C(CCC(=O)O)=N/Nc1ccc([N+](=O)[O-])cc1[N+](=O)[O-]	0.72	1.62
2	C=CCn1c(NC(=O)c2ccc(Br)o2)c(C(=O)OCC)sc1=S	-0.29	0.81
3	COc1ccc(/C=C/C(=O)OCC(=O)NCCC2=CCCCC2)cc1OC	0.75	0.57
4	CCc1ccccc1NC(=O)CN(C)Cc1nc(N)nc(Nc2ccccc2C)n1	-0.83	0.36
5	Nc1ccn(Cc2cccc(Cl)c2)n1	0.36	0.91
6	COc1ccc(OC)c(Nc2nc(-c3sc(C)nc3C)cs2)c1	-1.91	0.03
7	CCCn1c(CN2CCN(C(=O)OCC)CC2)nc2cc([N+](=O)[O-])ccc21	2	1.15
8	CSc1ccc(S(=O)(=O)NCC(=O)OCC(=O)NC2(C#N)CCCCC2)cc1[N+](=O)[O-]	0.97	0.52
9	Cc1ccccc1C(=O)Nc1ccc(N2CCCC2)cc1	-2.12	0.07
10	NC(=O)c1ccccc1N/C=C1\CCCCC1=O	0.85	1.27
11	CC1=C(CCN2CCN(C(C)C)C(CCO)C2)C(C)(C)CCC1 (stereo unspecified)	-1.14	2.61
12	CC(C)Cc1nc2oc3c(NCC(C)O)ncnc3c2c2c1CCCC2 (stereo unspecified)	0.08	2.12
13	O=C(Nc1cccc(C(F)(F)F)c1)C1CCCO1 (stereo unspecified)	-0.62	0.2
14	CC(C)NC(=O)CN1C(=O)c2ccccc2S1(=O)=O	-0.08	1.96
15	COc1cccc(N2CC(C(=O)OC(C)C(=O)c3ccccc3)CC2=O)c1 (stereo unspecified)	0.99	2.92
16	C1CCc2nnc(C3CC3)n2CC1	0.44	0.68
17	CCC(=O)N/N=C(\C)CC(=O)Nc1cccc([N+](=O)[O-])c1	-0.19	0.02
18	COc1ccc(OC)c(S(=O)(=O)N2CCCCC2C(=O)N2CCN(c3ccccn3)CC2)c1 (stereo unspecified)	-0.7	1.35
19	C/C(=N\NC(=O)COc1ccccc1)c1ccc(O)cc1	-0.69	0.39
20	C/C(N)=C(/C#N)C(=O)CSc1nc(C2CCCCC2)n(-c2ccccc2)n1	0.46	3.43
21	CCOC(=O)/C(=N\Nc1ccccc1Cl)N(C)C1CCCCC1	-1.04	0.97
22	COc1ccc(C(C(=O)NC2CCCC2)N(C(=O)c2snc(C(N)=O)c2N)c2ccccc2OC)cc1OC (stereo unspecified)	0	0.75
23	CCOC(=O)N1CCN(C(=O)c2cc(COc3ccc(OC)cc3Cl)on2)CC1	-2.49	3.54
24	O=[N+]([O-])c1ccc2[nH]ncc2c1	-2.05	0.19
25	CC1(C)Cc2c(ccc3ccccc23)C2=C(C(=O)N3CCCC3)C(=O)C(=O)N21	1.53	0.19
26	CCCCCSc1nc2c(c(=O)[nH]c(=O)n2C)n1C(C)C	-1.62	0.36
27	CCN(CC)CCCNC(=S)N1CCN(c2nc3ccccc3n2CC)CC1	0.51	0.61
28	Cc1ccnc(NC(=O)Nc2cccc(F)c2)c1	0.22	0.44
29	CCC(C)(C(=O)NC1CCCC1)N(C(C)=O)c1ccc(C)cc1 (stereo unspecified)	-1.22	0.02
30	O=S(=O)(NCCCN1CCOCC1)c1ccc(Cl)cc1	-1.22*	8.03*
31	Nc1c(C(=O)NCc2ccco2)nnn1Cc1ccccc1	0.02	0.42
32	Cc1ccc(NC(=O)CN2CCN(Cc3ccccc3)CC2)cc1Cl	-0.13	1.98
33	CCOC(=O)C1=C(c2ccccc2)N=c2s/c(=C\c3ccc(O)cc3)c(=O)n2C1c1cccs1 (stereo unspecified)	0.31	0.46
34	Cc1ccccc1N1CCN(Cc2c[nH]c3ccccc23)CC1	-0.64	1.09
35	CN1CCN(c2ccc(NC(=O)c3ccc(C(F)(F)F)cc3)cn2)CC1	0.05	0.03
36	FC(F)(F)c1cccc(NC(=S)N2CCCCCC2)c1	0.31	0.43
37	O=C(CCc1ccc(S(=O)(=O)NCc2ccccc2)cc1)NCc1ccco1	-1.23	0.3
38	O=C(Cc1ccccc1[N+](=O)[O-])NCc1ccc(Cl)cc1	0.01	0.54
39	Cc1ccccc1NC(=O)Cn1nnc(-c2ccc(CN3CCC(C)CC3)cc2)n1	1.78	0.07
40	C=CCn1c(=O)c2ccc(C(=O)NCc3ccccc3)cc2n(Cc2ccccc2Cl)c1=O	0.09	3.48
41	COc1ccc(CCNC(=O)C2CCN(S(=O)(=O)c3ccc(OC)cc3)CC2)cc1	-0.77	0.15
42	CCN(CC)S(=O)(=O)c1ccc2c(c1)c(=O)c(C(=O)N1CCN(c3ccccc3)CC1)cn2C	-2.94	1.2
43	c1ccc(COc2ccc(CNn3cnnc3)cc2)cc1	2.65	1.53
44	C=CCn1c(SCc2ccc(C(=O)OC)cc2)nnc1-c1sc(N)nc1C	0.81	0.11
45	O=C(c1cnccn1)N1CCN(S(=O)(=O)c2ccc3ccccc3c2)CC1	3.12	0.65
46	CCN(CC)CCNc1cc(C)c(C#N)c2nc3ccccc3n12	-0.04	0.41
47	C#CCNC(=O)C1=C[C@H](C)C[C@H](OCc2ccc(CO)cc2)O1	-1.03	0.42
48	Cn1nc(C(=O)NCc2ccccc2Cl)c2c1-c1ccccc1S(=O)(=O)C2	-1.42	0.03
49	CC(C)C[C@H](NC(=O)N1CCn2c1nc1ccccc12)C(=O)N[C@@H](Cc1ccccc1)C(=O)O	0.15	0.01
50	CCOC(=O)/C(C#N)=C/c1c(N2CCN(CC)CC2)nc2c(C)cccn2c1=O	-0.39	0.21
51	COc1ccc(C(=O)Nc2ccc(C3CC3(Cl)Cl)cc2)cc1 (stereo unspecified)	0.31	1.52
52	CCN1CCN(c2ccc(NC(=O)c3ccc([N+](=O)[O-])o3)cc2Cl)CC1	-1.59	0.96
53	CCc1cc2c(=O)c(-c3cnn(-c4ccccc4)c3)c(C)oc2cc1OCC(=O)Nc1cccc(C)c1	-1.07	0.96
54	COCCN(C(=O)CSc1nc2ccccc2c(=O)n1C(C)COC)c1c(N)n(Cc2ccccc2)c(=O)[nH]c1=O (stereo unspecified)	-1.79	0.63
55	Cc1ccccc1C(OCC(O)CN1CCN(CCO)CC1)c1ccccc1 (stereo unspecified)	0.34	0.58
56	COc1ccc(N(CC(=O)NCCSCc2ccc(C)cc2)S(=O)(=O)c2ccccc2)cc1	0.25	1.3

Later entries:
No.	Molecule	KCNQ2 pot baseline	KCNQ2 pot
57	COc1ccc(Br)cc1CSC(=N)N	-0.23	0.16
58	CCCCNc1c([N+](=O)[O-])ncn1C	1.19	1.37
59	O=C(O)c1cccc(N/N=C/c2cc(Br)cc(Br)c2O)c1	-0.61*	5.83*
60	CCCCc1cc(=O)oc2cc(C)cc(OC(C)C(=O)NCc3cccnc3)c12 (stereo unspecified)	-1.41	2.08
61	Oc1ccc(Cl)cc1N=Nc1ccccc1	0.03	1.11
62	Cc1ccccc1-n1c(SC(C)C(N)=O)nnc1-c1cccnc1 (stereo unspecified)	0.18	2.49
63	Cc1cccc(OCCNC(=O)c2cc(-n3cnnc3)ccc2Cl)c1	-1.14	1.51
64	COc1ccc(/C=C/C(=O)OC2CCCCC2CN(C)C)cc1 (stereo unspecified)	0.05	0.22
65	O=C1CCC(C(=O)Nc2ccccc2N2CCOCC2)=NN1	-0.68	0.03
66	Cc1cccc(OCc2nnc(SCC(=O)Nc3ccc(C)c(Cl)c3)o2)c1	-0.39	0.98
67	O=C1Nc2c(ccc(Cl)c2Cl)C(=O)C1(F)c1ccccc1 (stereo unspecified)	-0.5	1.41
68	COc1cc(/C=N/NC(=S)NCCN2CCOCC2)cc(OC)c1OC	-1.08	0.87
69	COC(=O)COc1ccc(NC(=O)C(c2ccccc2)c2ccccc2)cc1	-1.15	1.68
70	Clc1cccc(-c2ccc(CNCCCN3CCOCC3)o2)c1	0.61	0.92
71	Cc1ccc(NC(=O)CC(=O)Nc2ccc(C)cc2)cc1	3.78	3.51
72	CCN(CC(=O)Nc1c(F)cccc1F)C(=O)c1ccc(-n2cncn2)c([N+](=O)[O-])c1	0	0.03
73	Cc1oc2cc3oc(=O)ccc3cc2c1C	1.63	1.64
74	CC(C)(C)NC(=O)N1CCN(c2ncccc2C(F)(F)F)CC1	-1.34	0.26
75	O=S(=O)(NCCOc1ccccc1)c1ccc2ccccc2c1	-1.05	0.92
76	CC(=O)NNC(=O)c1[nH]c2ccc(Cl)cc2c1-c1ccccc1	0.08	2.2
77	CC(C)[C@H](NC(=O)CCCn1nnc2ccccc2c1=O)C(=O)O	1.23	0.06
78	CCOC(=O)N1CCN(C(=O)CSc2ncnc3ccccc23)CC1	-0.25	1.53
79	Cc1ccc2oc(=O)c3cc(C(=O)Nc4cc(-c5cccc(F)c5)no4)sc3c2c1	-0.21	1.78
80	Cn1c(=O)n(C)c2cc(NC(=O)c3ccc(F)cc3)ccc21	-1.2	0.28
81	Cn1ccnc1SCC(=O)Nc1cccc(C(F)(F)F)c1	-0.05	0.97
82	O=C(C1CCCCN1S(=O)(=O)c1ccccc1[N+](=O)[O-])N1CCOCC1 (stereo unspecified)	0.76	0.32
83	CCOC(=O)C(O)(CC(=O)c1ccc(OC)cc1)C(F)(F)F (stereo unspecified)	-0.63	0.57
84	CC(C)CNC(=O)Nc1ccccc1F	0.51	1.38
85	CC1=C(C#N)C(c2ccccc2O)C(C#N)=C(C)N1	0.51	1.46
86	COc1cccc(C(=O)N2CCN(C(=O)c3cccc4ccccc34)CC2)c1OC	0.85	0.48
87	CCOC(=O)Cc1csc(N/N=C\c2ccccc2OC)n1	0.05	0.84
88	Cc1cc(C)n(C(=O)CSc2nc3ccccc3o2)n1	0.6	1.46
89	O=C(c1cccc(S(=O)(=O)Nc2cccc(C(F)(F)F)c2)c1)N1CCOCC1	1.27	0.22
90	O=[N+]([O-])c1ccc(Sc2ccc(F)cc2)nc1	-0.16	0.8
91	CCN1C(=O)CC(N2CCN(c3ccc(OC)cc3)CC2)C1=O (stereo unspecified)	0.23	0.15
92	CCN1CCN(c2nc(Nc3ccccc3)nc(N)c2[N+](=O)[O-])CC1	-0.15	1.31
93	COc1ccccc1-n1cnnc1SCC(=O)N1CCN(S(=O)(=O)c2ccccc2)CC1	-0.7	0.39
94	CC1(c2nnc(-c3ccc(F)cc3)o2)CC(c2ccc(F)cc2)=NO1 (stereo unspecified)	-1.09	1.09
95	CCN(CC)C(=O)CSc1nnc([C@H](Cc2c[nH]c3ccccc23)NC(=O)OC(C)(C)C)o1	-1.3	1.91
96	Cc1cccc(OCC(=O)Nc2ccc(N3CCN(C(=O)c4ccco4)CC3)cc2)c1C	0.76	1.18

Given with values under each structure: part of the list above.
Results follow in this order: KCNQ2 pot baseline, KCNQ2 pot
89: O=C(c1cccc(S(=O)(=O)Nc2cccc(C(F)(F)F)c2)c1)N1CCOCC1
  1.27, 0.22
90: O=[N+]([O-])c1ccc(Sc2ccc(F)cc2)nc1
  -0.16, 0.8
91: CCN1C(=O)CC(N2CCN(c3ccc(OC)cc3)CC2)C1=O (stereo unspecified)
  0.23, 0.15
92: CCN1CCN(c2nc(Nc3ccccc3)nc(N)c2[N+](=O)[O-])CC1
  -0.15, 1.31

Carrying on:
No.	Molecule	KCNQ2 pot baseline	KCNQ2 pot
97	CC(c1ccccc1)n1cc(C(=O)NCC2CCCO2)nn1 (stereo unspecified)	0.49	0.03
98	Cc1ccc2oc(=S)n(C)c2c1	-0.11	0.79
99	O=C(C[n+]1cc[nH]c1)c1ccc(Cl)cc1	2.82	1.14
100	Cc1ccc(C(=O)N2CCC(C)CC2)cc1C	-1.3	0.38
101	Nc1ccc(C(O)(C(F)(F)F)C(F)(F)F)cc1	0.07	1.31
102	CCc1cccc(C)c1NC(=O)CSc1nnc(C)o1	-0.38	0.02
103	COc1cc(O)ccc1C(=O)CCc1ccc(O)cc1	1.47	2.77
104	O=C(Cn1cc(C(=O)C2CC2)c2ccccc21)NCc1ccc2c(c1)OCO2	-0.01	1
105	NC1=NC[C@H](Cc2ccc(O)cc2)N1CCCCC1CCCCC1	-0.09	0.01
106	O=C(O)c1cc2c(cc1NC(=O)c1c(F)cccc1Cl)OCCCO2	0.23	2.13
107	O=S(=O)(Nc1nc2ccccc2[nH]1)c1ccc(Cl)cc1	-1.85	0.56
108	COc1ccc(OC)c(S(=O)(=O)N2CCC(C(=O)NC(C)c3ccccc3)CC2)c1 (stereo unspecified)	-0.2	2.07
109	CC(=O)c1cccc(N2C(=NC(=O)COc3ccccc3)SC3CS(=O)(=O)CC32)c1 (stereo unspecified)	-1.11	2.9
110	COc1ccccc1NC(=O)Nc1cc(C(C)(C)C)nn1C	0.13	1.23
111	CCn1c(SCC(=O)Nc2nccs2)nnc1-c1ccccn1	0.17	0.07
112	Cc1ccc(NC(=O)COC(=O)c2cc(C)nc3ccccc23)c([N+](=O)[O-])c1	0.99	1.36
113	Nc1nonc1-n1nnc(C(=O)N/N=C\c2cccc(Cl)c2)c1CN1CCOCC1	0.08	0.52
114	CC(NC(=O)/C(C#N)=C1\N=C(NC(=O)c2ccco2)c2ccccc21)c1ccccc1 (stereo unspecified)	0.07	0.61
115	Cc1nc(P(=O)(c2ccccc2)c2ccccc2)c(N2CCOCC2)o1	1.33	0.03
116	CN(C)/C=C1\C(=O)Oc2ccccc2C1=O	0.5	0.79
117	O=C(Cc1ccc(NC2=NC3CS(=O)(=O)CC3S2)cc1)Nc1ccc(F)cc1 (stereo unspecified)	-0.32	0.9
118	C=CCn1c(CCn2c3ccccc3c3ccccc32)n[nH]c1=S	-0.06	0.39
